STK33 kinase inh = human STK33 kinase inhibition; AID 2661; purified STK33, MBP phosphorylation, ADP-Glo luminescence; 320,000 compounds, 0.073% hits; Q9BYT3; inhibition, % at 10 µM;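 active = inhibition at or above 25%, using the most active replicate where run in duplicate; inactive = inhibition below 25%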
Target sequence (Q9BYT3 whole entry, looked up): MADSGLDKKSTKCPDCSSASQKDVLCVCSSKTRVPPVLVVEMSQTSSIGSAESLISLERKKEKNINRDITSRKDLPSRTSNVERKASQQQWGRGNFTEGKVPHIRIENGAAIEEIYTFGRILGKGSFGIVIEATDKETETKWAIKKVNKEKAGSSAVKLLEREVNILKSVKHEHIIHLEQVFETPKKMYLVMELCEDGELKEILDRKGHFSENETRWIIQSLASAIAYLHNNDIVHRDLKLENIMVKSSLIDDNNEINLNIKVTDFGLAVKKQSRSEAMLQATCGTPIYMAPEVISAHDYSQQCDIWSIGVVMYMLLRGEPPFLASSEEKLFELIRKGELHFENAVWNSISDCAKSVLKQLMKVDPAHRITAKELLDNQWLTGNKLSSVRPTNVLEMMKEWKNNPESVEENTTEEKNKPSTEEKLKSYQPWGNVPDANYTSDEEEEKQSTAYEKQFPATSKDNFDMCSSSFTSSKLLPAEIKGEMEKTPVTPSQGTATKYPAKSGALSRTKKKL
The depositor's hits bear a star.

molecule	STK33 kinase inh
CCCCn1c(=O)c(C(=O)Nc2ccccc2)c(O)c2ccccc21	-1.0
O=C(Nc1ccc(Cl)c(Cl)c1)c1ccco1	0.6
[O-]c1ccccc1-[n+]1c(-c2ccccc2)cc(-c2ccccc2)cc1-c1ccccc1	-0.2
CCC(=NCC1CCCO1)c1c(O)[nH]c(=O)[nH]c1=O (configuration not stated)	1.9
O=C1CC(=O)N(Cc2ccccc2)C(=O)N1CCCCCCN1C(=O)CC(=O)N(Cc2ccccc2)C1=O	-0.4
CCOP(=S)(OCC)SCC(=O)NC(C(=O)O)C(C)C (configuration not stated)	-1.3
Clc1cccc(N2CCNCC2)c1Cl	0.2
C[N+]1(C)CCOC(O)(c2ccc(-c3ccc(C4(O)C[N+](C)(C)CCO4)cc3)cc2)C1 (configuration not stated)	-0.1
Clc1ccc2c(N3CCNCC3)ccnc2c1	-0.7
COc1ccc(CCC(=O)NCCc2cnc[nH]2)cc1	0.0
COc1ccccc1-n1c(O)c(/C=C2\C=Nc3ccccc32)c(=O)[nH]c1=O	0.5
c1ccc2c(c1)CSc1ccccc1C2C1=NCCN1 (configuration not stated)	0.2
COc1ccc(-c2nc3ccccc3c(=O)n2-c2cccnc2)cc1	-1.4
Cc1ccc2cc(C=C(C#N)C#N)c(Cl)nc2c1	-0.1
CC(=NCCN1CCOCC1)c1c(O)n(-c2ccccc2C)c(=O)[nH]c1=O	-0.2
O=C(c1ccccc1[N+](=O)[O-])N1CCC2(CC1)OCCO2	-18.7
CC(O)(CS(=O)(=O)c1ccc(F)cc1)C(=O)Nc1ccc(C#N)c(C(F)(F)F)c1 (configuration not stated)	-2.1
CCCC(C)C1(CC)C(=O)NC(=Nc2ccccc2)NC1=O (configuration not stated)	-1.8
COc1ccc(C(C)=O)cc1CC(C(=O)c1ccccc1)N(C)C (configuration not stated)	1.3
CN1C(=O)C(=Cc2ccccc2OCc2ccc(Cl)cc2)C(=O)N(C)C1=O	0.7
O=C1N[C@@H](Cc2ccccc2)C(=O)N2[C@H]1C[C@H]1c3ccccc3N(OOSc3ccccc3)[C@H]12	-0.8
COc1ccc(Cn2c(O)c(C=NCCN3CCOCC3)c(=O)[nH]c2=O)cc1	-1.7
Nc1ccc(C2(c3ccc(N)cc3)CCCCC2)cc1	-0.8
C=CCn1c(O)c(C(CC)=NCc2ccc3c(c2)OCO3)c(=O)[nH]c1=O	-1.3
CCN1C(=O)NC(=O)/C(=C\c2cn(CC(=O)O)c3ccccc23)C1=O	-0.9

Reprinted at random: 4 entries already listed, in no set order.
molecule	STK33 kinase inh
c1ccc2c(c1)CSc1ccccc1C2C1=NCCN1 (configuration not stated)	0.2
Clc1cccc(N2CCNCC2)c1Cl	0.2
O=C1CC(=O)N(Cc2ccccc2)C(=O)N1CCCCCCN1C(=O)CC(=O)N(Cc2ccccc2)C1=O	-0.4
CCCCn1c(=O)c(C(=O)Nc2ccccc2)c(O)c2ccccc21	-1.0

(more compounds)
molecule	STK33 kinase inh
O=c1[nH]c(=S)n(Cc2ccc(F)cc2)c(O)c1/C=N/N1CCCCCC1	1.2
O=C1NC(=O)C(=Cc2ccc(SC3CCCCC3)o2)C(=O)N1	-0.6
c1ccc(CCN2CCC3(CC2)OCCO3)cc1	-2.3
CNC(=O)OCc1n(C)cc[n+]1C	-2.0
Cc1nc2ccccc2c(=O)n1-c1ccc(Cl)c(Cl)c1	-0.4
COc1ccc(C(=O)C2CN(C)CC2C(=O)c2ccc(OC)cc2)cc1 (configuration not stated)	0.0
COc1ccc(CCn2c(O)c(C=NCCCN(C)C)c(=O)[nH]c2=O)cc1OC	10.5
CC(=O)N1CCN(Cc2ccc(Cl)nc2)CC1	-1.7
COc1ccc(-n2c(=O)[nH]c3ccccc3c2=O)c(OC)c1	0.3
CN1C(=O)N(C)C(=O)C2(Cc3ccccc3N3CCCC32)C1=O (configuration not stated)	0.8
COc1cc(CN=C(C)c2c(O)n(C3CCCCC3)c(=O)[nH]c2=O)cc(OC)c1	-3.3
O=C(Cn1cnc2ccccc2c1=O)NCCC(=O)N1CCC2(CC1)OCCO2	1.3
Cn1c(O)c(C(c2ccccn2)c2c(O)n(C)c(=S)[nH]c2=O)c(=O)[nH]c1=S	-0.4
COc1ccc2c(c1)CC1(CN2C)C(=O)NC(=O)N(c2ccc(F)cc2)C1=O (configuration not stated)	-0.2
CCN1CCN(Cc2cc(OC)c3c(c2)OCO3)CC1	-1.9
O=C(c1cc(Br)ccc1Cl)N1CCC2(CC1)OCCO2	2.4
CC(C)CC(=O)Nc1ccc(S(=O)(=O)N2CC3CC(C2)c2cccc(=O)n2C3)cc1 (configuration not stated)	0.0
CN(C)c1ccc2c(c1)N=C(c1ccco1)OP2(=S)N1CCOCC1 (configuration not stated)	-1.8
c1ccc2c(CN3CCOCC3)c[nH]c2c1	-2.2
c1ccc(CNc2c3c(nc4ccccc24)CCC3)cc1	1.4
Cc1ccc(C(=O)N[C@@H](C)CN2C3=NC[C@@H](Cc4ccccc4)N3C[C@H]2Cc2ccc(O)cc2)cc1Br	2.0
COc1cc2c(cc1OC)CC[N+](C)=C2	-1.8
O=C(CNS(=O)(=O)c1cccs1)N1CCC2(CC1)OCCO2	-0.1
O=C(NCc1ccccn1)c1ccccc1Cl	-0.1
CC/C=C/CC(=O)N[C@@H](c1ccccc1)[C@@H](O)C(=O)O[C@H]1C[C@@]2(O)[C@@H](OC(=O)c3ccccc3)C3[C@](C)(C(=O)[C@H](OC(C)=O)C(=C1C)C2(C)C)[C@@H](O)C[C@H]1OC[C@@]31OC(C)=O (some centres not stated)	1.1
CN(C)C(=O)Oc1ccc(-c2cn3cc(C(F)(F)F)ccc3n2)cc1	-0.1
Cn1c(NN=O)nc2ccccc21	-1.3
C=CCn1c(O)c(C(CC)=Nc2ccc(N(CC)CC)cc2)c(=O)[nH]c1=O	0.4
COc1ccc(C(=O)C2(C)N(O)C(C)C(c3cccs3)=[N+]2[O-])cc1 (configuration not stated)	-1.4
O=c1[nH]c(=O)n(CCc2ccccc2)c(O)c1C=NCCN1CCNCC1	-0.7
COC(=O)C1=C(c2cccc(OC)c2OC)C[C@@H]2CC[C@H]1N2C(=O)NC(C)C	0.2
CCNC(=S)N1CCn2cccc2C1c1cccnc1 (configuration not stated)	-0.2
Cc1cc(O)c2c(c1)OC(C)(C)C1=C2CC(C)CC1 (configuration not stated)	-0.8
CCN1CCN(Cc2ccccc2C)CC1	-0.2
Cc1c(Cl)cccc1NC(=S)N1CC2CC(C1)c1cccc(=O)n1C2 (configuration not stated)	-0.2
O=C(Nc1ccccc1OC(=O)N1CCOCC1)N1CCOCC1	0.0
CN1CCN(c2cc(N3CCCC3)c([N+](=O)[O-])cc2F)CC1	0.1
COc1cc(OC)c(OC)cc1CNCCc1ccc2c(c1)OCO2	0.0
Cc1ccc(CNCCc2ccccc2F)cc1	-0.8
Cc1ccsc1C(=O)C1CCCN(Cc2cc(C(C)C)n[nH]2)C1 (configuration not stated)	-1.5
CN1CCN(c2ccc([N+](=O)[O-])c(N/N=C3\CN4CCC3CC4)c2)CC1	-1.7
O=C1CN=C(c2ccc(Br)cc2)c2c(sc3c2CCCC3)N1CCN1CCCCC1	1.0
CSc1nc2ccc(C)cc2c(=O)n1-c1cccnc1	-0.9
CN1C2CCC1C(COC(=O)c1ccccc1)C(O)C2 (configuration not stated)	-2.0
COc1cccc(-c2nc3ccc(N4CCN(C)CC4)cc3[nH]2)c1	2.9
COc1cc(CN2CC3CC(C2)c2cccc(=O)n2C3)cc(OC)c1OC (configuration not stated)	-0.3
O=C1N[C@H](Cc2ccccc2)C(=O)N2[C@@H]3[C@H](C[C@@H]12)c1ccccc1N3OOSc1ccccc1	-1.9
Cc1ncc(CN2CCCC(C(=O)c3sccc3C)C2)s1 (configuration not stated)	-1.1
Oc1cccc2cccnc12	1.2
CCN(CC)c1ccc(N=Cc2c(O)n(-c3ccc(OC)cc3)c(=O)[nH]c2=O)cc1	1.8

Look-ups from the list.
For STK33 kinase inh, Cn1c(O)c(C(c2ccccn2)c2c(O)n(C)c(=S)[nH]c2=O)c(=O)[nH]c1=S has the entry -0.4
For STK33 kinase inh, COc1cccc(-c2nc3ccc(N4CCN(C)CC4)cc3[nH]2)c1 has the entry 2.9
For STK33 kinase inh, CN1C(=O)N(C)C(=O)C2(Cc3ccccc3N3CCCC32)C1=O (configuration not stated) has the entry 0.8
For STK33 kinase inh, O=C1N[C@@H](Cc2ccccc2)C(=O)N2[C@H]1C[C@H]1c3ccccc3N(OOSc3ccccc3)[C@H]12 has the entry -0.8
For STK33 kinase inh, COc1ccc(-c2nc3ccccc3c(=O)n2-c2cccnc2)cc1 has the entry -1.4
For STK33 kinase inh, O=C(c1ccccc1[N+](=O)[O-])N1CCC2(CC1)OCCO2 has the entry -18.7

(further entries)
molecule	STK33 kinase inh
N=C1c2ccccc2CN1NC(=O)c1ccc(F)cc1	-0.7
COc1ccc(CN2CCCCC2c2cccnc2)cc1C (configuration not stated)	-1.5
CCNc1nc(Cl)nc(NC(C)C)n1	-0.2
CC(C)CNc1c2c(nc3ccccc13)CCC2	1.1
Cn1c(O)c(C=NC2CC(C)(C)NC(C)(C)C2)c(=O)n(C)c1=O	-1.2
O=C(N/N=C/c1c(O)n(Cc2ccccc2)c(=O)[nH]c1=O)c1ccccc1	2.5
O=C1NC(=O)C(=Cc2ccc(OCC(=O)N3CCOCC3)cc2)C(=O)N1	-2.4
Cn1c(O)c(/C=N/N2CCOCC2)c(=O)[nH]c1=S	-1.8
Cc1nc2ccccc2c(=O)n1-c1ccc(Cl)cc1Cl	-1.1
Cc1ccc(-n2c(C)cc(/C=C3/C(=O)NC(=O)N(C)C3=O)c2C)cc1	-0.5
O=C(COc1ccccc1)c1cn(Cc2ccccc2)c2ccccc12	0.9
O=C(O)Cc1cnc[nH]1	-2.0
NC(N)=N/N=C/c1ccc(N(c2ccccc2)c2ccccc2)cc1	10.6
CCOc1cc(C2C(C#N)=C(N)Oc3c2c(=O)oc2ccccc32)ccc1OC(=O)c1cccs1 (configuration not stated)	-1.3
Cc1cccn2c(=O)c3c(nc12)N1CCCCCC1C1(C3)C(=O)N(C)C(=O)N(C)C1=O (configuration not stated)	-3.9
Cc1ncc(CNC(=O)N(CCCl)N=O)c(N)n1	-1.0
O=C1/C(=C\c2ccccc2)C2OCC=C3CN4CCC56c7ccccc7N1C5C2C3CC46 (configuration not stated)	1.5
CCC(=NCc1ccc(F)cc1)c1c(O)n(C)c(=O)n(C)c1=O	1.2
O=C(/C=C/c1ccc2c(c1)OCO2)c1c(O)n(CCC2=CCCCC2)c(=O)[nH]c1=O	-0.4
CCCN1CCC[C@@H]2Cc3nc(N)ncc3C[C@H]21	-0.4
COC(=O)C1=C(c2cc3ccccc3s2)C[C@@H]2CC[C@H]1N2C(=O)NCCCOC(C)C	0.2
CC12CCCCC1=NC(c1ccc(Br)cc1)N2O (configuration not stated)	-1.8
Cc1cccc(N2C(=O)NC(=O)/C(=C/c3cc4c(cc3[N+](=O)[O-])OCO4)C2=O)c1	0.1
CC(C)CCn1c(N)c(C(=O)NCc2cccs2)c2nc3ccccc3nc21	-0.3
CCN(CC)S(=O)(=O)c1ccc(NN=C(C#N)C#N)cc1	-2.2
OC(CC#CCN1CCCCCC1)(c1ccccc1)C1CCCC1 (configuration not stated)	-1.1
C[C@]12CCC3=C4CCC(=O)C=C4CC[C@H]3C1CC[C@@H]2O (some centres not stated)	0.1
O=c1[nH]c(=O)n(Cc2ccc(F)cc2)c(O)c1C=Nc1ccc(Cl)cc1	-0.6
CC(=Nc1ccc(F)cc1)c1c(O)n(C)c(=O)[nH]c1=O	-2.2
CN1C(=O)C(Cc2ccc(OCc3ccccc3)cc2)C(=O)N(C)C1=O	1.3
O=C(/C=C/c1ccccc1)c1c(O)n(CCc2ccccc2)c(=O)[nH]c1=O	5.8
O=C1NC(=O)N(Cc2ccccc2)C(=O)/C1=C\C=C\c1ccco1	-0.2
CN1C(=O)C(=Cc2c(OCc3cnc(Cl)s3)ccc3ccccc23)C(=O)N(C)C1=O	-1.2
O=C1NC(=O)N(c2ccc3c(c2)OCO3)C(=O)/C1=C\c1ccc(-c2ccccc2C(=O)O)o1	-0.7
c1ccc(CCNCc2cccnc2)cc1	1.9
CCC(C)C(=O)N[C@@H](c1ccccc1)[C@@H](O)C(=O)O[C@H]1C[C@@]2(O)[C@@H](OC(=O)c3ccccc3)C3[C@](C)(C(=O)[C@H](OC(C)=O)C(=C1C)C2(C)C)[C@@H](O)C[C@H]1OC[C@@]31OC(C)=O (some centres not stated)	0.2
CCC(C(=O)N1CCC2(CC1)OCCO2)c1ccccc1 (configuration not stated)	-1.6
COc1cccc(N2C(=O)NC(=O)/C(=C\c3cn(C)c4ccccc34)C2=O)c1	-0.3
Cc1sc2c(c1C)C(c1ccc(C(C)(C)C)cc1)=NCC(=O)N2CC(=O)Nc1nccs1	-1.1
Cc1ccc2c(c1)C1CN(C)CCC1N2C(=O)Cn1nnc(-c2ccccc2F)n1 (configuration not stated)	-0.6
CP(=O)(O)CCCN	-0.8
O=C(NC(c1ccc(Cl)cc1)P(=O)(Oc1ccccc1)Oc1ccccc1)OCc1ccccc1 (configuration not stated)	0.8
O=Cc1cn(CCCOc2ccccc2)c2ccccc12	-1.6
Cc1c(/C=N/O)c2ccccc2n1C	-0.3
CC/C(=N\Nc1ccccc1)c1c(O)[nH]c(=O)[nH]c1=O	-1.0
O=C(C1CCCO1)N1CCC2(CC1)OCCO2 (configuration not stated)	-1.2
COC(=O)C1=C(c2cc3ccccc3o2)C[C@@H]2CC[C@H]1N2C(=O)N1CCC(C)CC1	1.8
Cc1ccc(C(=O)N[C@@H](C)CN2C3=NC[C@H](Cc4ccccc4)N3C[C@H]2Cc2ccc(O)cc2)cc1Br	1.4
CC(N=Cc1c(O)[nH]c(=O)[nH]c1=O)c1ccccc1 (configuration not stated)	-1.1
COc1cc(C=C2C(=O)NC(=O)NC2=O)cc(OC)c1OC	0.8
CCN(CC)C(=O)c1ccc(NC(=O)C2=C(C)OCCS2)cc1	-1.0
CCCCCCn1c(O)c(C=NCCN2CCCCC2)c(=O)[nH]c1=O	-3.2

Source: PubChem BioAssay (Broad Institute)

An excerpt, and most or all hits are left out here.
